KCNQ2 enhance = enhances the rat KCNQ2 potassium channel; O88943; B-score at 10 µM; CHO-K1 KCNQ2, FluxOR thallium flux fluorescence; hits give high values; AID 2239; 310,000 tested, 0.54% active;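 active = fluorescence ratio B-score at least 3 SD of library B-scores, with initial fluorescence B-score within 3 SD, cut at about 5.3 in these data; same plate scores as AID 2156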;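 note: B-score of peak minus minimum over baseline fluorescence ratio after K+ and Tl+ stimulus; positive B-score means potentiation of KCNQ2 with more thallium influx and brighter signal; only the inactives scoring about 0 or higher are listed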
Target sequence (O88943 whole entry, looked up): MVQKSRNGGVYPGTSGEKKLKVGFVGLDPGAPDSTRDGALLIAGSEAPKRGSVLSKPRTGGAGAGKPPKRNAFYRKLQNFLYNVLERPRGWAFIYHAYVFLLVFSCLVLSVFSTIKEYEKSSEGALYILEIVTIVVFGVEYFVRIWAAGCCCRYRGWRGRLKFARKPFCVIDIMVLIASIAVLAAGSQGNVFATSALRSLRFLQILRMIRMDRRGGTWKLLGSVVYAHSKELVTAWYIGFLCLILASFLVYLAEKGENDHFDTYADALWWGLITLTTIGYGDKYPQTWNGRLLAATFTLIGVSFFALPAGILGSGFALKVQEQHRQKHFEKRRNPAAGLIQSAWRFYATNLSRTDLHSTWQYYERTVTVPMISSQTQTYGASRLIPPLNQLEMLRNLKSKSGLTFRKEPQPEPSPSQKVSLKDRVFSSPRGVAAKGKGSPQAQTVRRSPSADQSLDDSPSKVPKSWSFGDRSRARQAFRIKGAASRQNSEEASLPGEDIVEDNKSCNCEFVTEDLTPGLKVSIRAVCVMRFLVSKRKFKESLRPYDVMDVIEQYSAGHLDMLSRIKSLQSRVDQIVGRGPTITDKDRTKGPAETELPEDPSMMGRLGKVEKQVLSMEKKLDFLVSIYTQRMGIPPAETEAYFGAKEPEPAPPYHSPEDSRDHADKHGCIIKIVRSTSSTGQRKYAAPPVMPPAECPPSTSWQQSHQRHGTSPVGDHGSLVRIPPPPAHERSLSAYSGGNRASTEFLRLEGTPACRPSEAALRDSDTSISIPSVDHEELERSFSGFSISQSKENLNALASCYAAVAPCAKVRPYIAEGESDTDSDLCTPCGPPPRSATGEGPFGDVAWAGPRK
KCNQ2 enhance baseline = further read-out of KCNQ2 enhance, marked with its call; B-score; compound at 10 µM; measured here: initial fluorescence intensity artifact check;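 brightness before thallium and not channel activity; 0 = typical well and far values either way flag optical interference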
An asterisk follows results filed as active. This is a subset; the hit share may differ from the screen's.

SMILES | KCNQ2 enhance | KCNQ2 enhance baseline
Clc1ccc(/C=C/c2nc(Cl)c(-c3ccc(Cl)cc3)c(Cl)n2)cc1 | 0.09 | 3.2
O=C(CCn1c(=O)c2sccc2n(CC(=O)OCc2ccccc2)c1=O)NCc1ccco1 | 0.56 | 0.06
O=C(O)C1CCN(C(=O)c2scc3c2OCCO3)CC1 | 0.47 | 1.5
CCOC(=O)Cc1csc(NC(=O)COc2ccc3c(C)cc(=O)oc3c2)n1 | 0.75 | -1.8
Cc1nnc(NC(=O)c2ccc3c(c2)OCO3)s1 | 0.03 | -0.05
COc1ccccc1N1CCN(Cc2nc(N)nc(Nc3ccc(C)c(Cl)c3)n2)CC1 | 8.9* | -0.03*
COc1cccc(N(CC(=O)NCc2ccccc2)C(=O)CCC(=O)Nc2nccs2)c1 | 2.7 | -0.04
COc1ccc(-n2c(SCC(=O)NCC3CCCO3)nc3c([nH]c4ccccc43)c2=O)cc1OC (centres undefined) | 0.36 | 0.37
COc1ccccc1-c1nnc(NC(=O)C(C)Sc2nncn2C)s1 (centres undefined) | 0.57 | 1
C[C@@H]1CC[C@@]2(O[C@H](CCO)C[C@H](O)[C@H]2O)O1 | 1.5 | -1.3
Cc1ccc(NCc2nnc(SCC(N)=O)n2CC2CCCO2)c(C)c1 (centres undefined) | 0.99 | -0.02
CCOc1ccc(NC(=O)N2CC(C)OC(C)C2)cc1 (centres undefined) | 1.7 | -1.2
COc1ccc(C(=O)COC(=O)CCN2C(=O)C3C4C=CC(C5CC45)C3C2=O)cc1 (centres undefined) | 0.97 | -1.1
CCC(=O)Nc1cccc(NC(=O)CSc2nnc(C3CC3)n2C)c1 | 0.12 | 1.1
Clc1ccc(Cn2ncc3c(NCc4cccnc4)ncnc32)cc1 | 2.7 | -2.1
CCOc1ccccc1N1CCN(C(=S)Nc2ccc(S(N)(=O)=O)cc2)CC1 | 0.16 | -0.1
Cn1nnnc1SCc1ccc(CSc2nnnn2C)cc1 | 0.86 | -0.13
CO/N=C/NC(=O)c1c(OC)ccnc1Oc1ccccc1 | 0.94 | 0.57
Cc1ccc2nc(-c3ccc(NC(=O)CSc4nc(N)cc(=O)[nH]4)cc3)sc2c1 | 0.57 | -2
COc1cccc(-c2c(C#N)c(N)nc3c2c(C)nn3-c2ccccc2)c1O | 0.1 | 0.03
CC1CC(C)CN(CCCNC(=O)CN2C(=O)CSc3ccc(S(=O)(=O)N4CCOCC4)cc32)C1 (centres undefined) | 0.67 | 0.75
CCOc1cc(/C=C(\C#N)C(=O)Nc2cccc(C(=O)O)c2)ccc1OCc1ccccc1Cl | 0.09 | -2.4
COc1cc2cc[n+](Cc3ccc([N+](=O)[O-])cc3)cc2cc1OC | 0.36 | 1.2
O=C(O)Cc1ccc(NC(=O)Nc2ccc(Br)cc2)cc1 | 0.82 | -3
COc1ccccc1C(=O)NCC(=O)N/N=C/c1ccc2c(c1)OCO2 | 0.89 | -0.97
COc1cc(C#N)ccc1OC(=O)c1cccc(S(=O)(=O)N2CCN(C)CC2)c1 | 0.56 | 1.8
O=C(CSc1ncn[nH]1)Nc1ccc2c(c1)CCC2 | 0.7 | 0.42
N#CC1=C(C=Nc2ccccc2O)CCC1 | 0.12 | 1
CC1CC(C)CN(C(=O)c2ccc3c(=O)n(Cc4ccc5c(c4)OCO5)c(=S)[nH]c3c2)C1 (centres undefined) | 0.32 | -1.4
N/C(CCS(=O)(=O)c1ccc(Cl)cc1)=N\OC(=O)c1ccccc1C(F)(F)F | 2.8 | -0.07

Entries of single compounds, looked up by structure.
`CCOc1cc(/C=C(\C#N)C(=O)Nc2cccc(C(=O)O)c2)ccc1OCc1ccccc1Cl` in the list: KCNQ2 enhance: 0.09; KCNQ2 enhance baseline: -2.4
`O=C(O)C1CCN(C(=O)c2scc3c2OCCO3)CC1` in the list: KCNQ2 enhance: 0.47; KCNQ2 enhance baseline: 1.5

More results follow:
SMILES | KCNQ2 enhance | KCNQ2 enhance baseline
Cn1c(=O)[nH]c(=O)c2c1nc(SCCO)n2CC(O)COc1ccccc1 (centres undefined) | 0.46 | -0.46
Cc1ccc(Sc2oc(/C=N/n3cnnc3)cc2Br)cc1 | 0.73 | -0.62
CC(=O)N1CCN(Cc2nc3cc(NC(=O)c4cccc(Br)c4)ccc3n2C)CC1 | 0.9 | 3.4
Cc1ccc(CCNCc2c(C(=O)O)c(C)n(-c3ccccc3)c2C)cc1 | 1 | -0.38
O=C(Nc1ccc(O)c2c(=O)cc(-c3ccccc3Cl)oc12)c1ccc(F)cc1 | 1.5 | -0.55
Cc1cccc(OCCn2c(=O)sc3ccccc32)c1 | 0.31 | -0.1
Cc1ccc(N(CC(=O)NCc2ccccc2)S(=O)(=O)c2c(C)noc2C)cc1 | 0.01 | -1.4
CC(=O)Nc1ccc(NC(=O)c2ccc(N(Cc3ccccc3C)S(C)(=O)=O)cc2)cc1 | 1.2 | 0.57
COC(=O)CNC(=O)/C=C/c1ccc(OC)cc1 | 2.8 | -0.54
CC(Sc1nc2ccccc2s1)C(=O)N1CCOCC1 (centres undefined) | 0.05 | 0.17
Oc1ccc(/C=C/c2ccnc3ccccc23)cc1 | 2.3 | -0.16
O=C(Cc1ccccc1)Nc1ccc(NC(=O)c2cccs2)cc1Cl | 0.56 | 1.3
O=C(N1CCOCC1)N1CCC(n2nnc3cc(F)ccc32)CC1 | 0.04 | -0.08
Cc1cc(C)c2c(=O)[nH]c(SCc3ccccc3C)nc2n1 | 1.3 | 0.14
CCNC(=O)NC(=O)CSc1nnc(-c2c[nH]c3ccccc23)o1 | 0.66 | -0.61
CC1=C(C(=O)Nc2ccccc2C)C2(CCCCC2)C(C(N)=O)C(=S)N1 (centres undefined) | 1.6 | -1.1
CCc1ccc(S(=O)(=O)Nc2cccc(-c3ccc4nncn4n3)c2)s1 | 0.47 | -1.4
C/C(NCC(C)(C)CN(C)C)=C(/C#N)C(=O)NCc1ccccc1 | 0.17 | -1
COc1ccccc1CNC(=O)[C@@H](NC(=O)C1CCN(C(=O)[C@@H]2CCCN2C(=O)OC(C)(C)C)CC1)C(C)C | 1.1 | -1.2
COCCn1c(=S)[nH]c2cc(C(=O)N(CCO)Cc3ccccc3)ccc2c1=O | 0.75 | -0.25
COc1cccc(/C=N/n2c(SC)nnc2-c2ccccc2)c1O | 5.3* | 2.9*
O=C1CCC(=O)N1CC(=O)N1c2ccccc2Sc2ccccc21 | 2.1 | -1.3
CCN(CC)C(=O)c1ccc(Nc2nnc(-c3ccc(O)cc3)c3ccccc23)cc1 | 1.1 | -1.2
Cc1nn(-c2ccccc2)c(C)c1/C=C/C(=O)OCC(=O)Nc1ncc(Cl)cc1Cl | 0.09 | 0.92
Cc1cc(OCc2cc(C(=O)NCC3(C)COC3)no2)cc(C)c1Cl | 1.8 | 2.3
O=[N+]([O-])c1cc(C(F)(F)F)ccc1N1CCCC(O)C1 (centres undefined) | 1.1 | -2.2
COc1ccc(S(=O)(=O)N2CCCCC2)cc1NC(=O)Cc1c[nH]c2ccccc12 | 0.01 | -1.7
O=C(CCc1nnc2n(Cc3ccccc3Cl)c(=O)c3ccccc3n12)NCCCN1CCOCC1 | 0.23 | -1.7
CCCCn1c(N)c(N(CC(C)C)C(=O)c2cccc(S(=O)(=O)N3CC(C)OC(C)C3)c2)c(=O)[nH]c1=O (centres undefined) | 0.81 | 2.6
Cc1ccc(Nc2nnc(C)c(=O)[nH]2)cc1 | 1 | -1
COc1ccc2cc(C(=O)/C=C/c3cc(OC)c(O)c(OC)c3)ccc2c1 | 0.15 | -0.51
Cc1ccc(C)c(N2CCN(S(=O)(=O)c3ccc4[nH]c(=O)c(=O)[nH]c4c3)CC2)c1 | 0.08 | 0.03
O=C(c1ccc(N2C(=O)C3C4c5ccccc5C(c5ccccc54)C3C2=O)cc1)N1CCOCC1 (centres undefined) | 0.41 | 0.92
Cc1sc2ccc3sccc3c2[n+]1C | 0.77 | 1.9
COc1ccccc1/C=C1\SC(=S)N(CCC(=O)N2CCN(C)CC2)C1=O | 0.43 | -0.87
COc1ccc(CC(=O)Nc2ccc(C(C)=O)cc2)cc1 | 0.9 | 1.5
COc1ccc2c(c1)CCc1c(C(=O)Nc3ccn(Cc4ccc(C)cc4)n3)noc1-2 | 1.8 | 0.92
CN(C(=O)CSc1nc2cc([N+](=O)[O-])ccc2n1-c1ccc(F)cc1)C1CCS(=O)(=O)C1 (centres undefined) | 1.8 | 0.3
CCOC(=O)N1CCN(C(=O)CCSCCc2ccncc2)CC1 | 1.6 | 0.3
CCN(CC)CCN(C(=O)c1ccc(S(=O)(=O)N(C)C2CCCCC2)cc1)c1nc2ccc(OC)cc2s1 | 0.01 | -1.2
O=C(Nc1ccc(Cc2ccncc2)cc1)C1CCC(N2C(=O)C3CC=CCC3C2=O)CC1 (centres undefined) | 1.4 | -1.6
CN(Cc1ccccn1)C(=O)CC1C(=O)NCCN1Cc1cccc(Oc2ccccc2)c1 (centres undefined) | 0.96 | 1.5
O=C(O)/C=C\c1ccccc1Oc1cccc(Cl)c1 | 1.9 | 0.04
CCOc1ccc(NC(=O)CSc2nnc(Cn3cnc([N+](=O)[O-])n3)n2CC)cc1 | 0.02 | -0.58
Cc1cc2c(cc1S(=O)(=O)NCc1ccc(Cl)cc1)OCC(=O)N2 | 0.09 | 1.4
NS(=O)(=O)c1ccc(-n2cccc2C=O)cc1 | 0.06 | 0.25
O=C(O)CCN1C(=O)/C(=C\c2cccc(OCC(=O)Nc3ccc(Cl)cc3)c2)SC1=S | 0.99 | 1.7
CCOC(=O)C1C(c2cccs2)NC(=O)NC1(O)C(F)(F)F (centres undefined) | 0.46 | 0.33
O=C1NN(c2ccc(F)cc2)C(=O)/C1=C\c1cnn(-c2ccccc2)c1 | 0.72 | 1.3
Cc1ccc(OCCOCCN2CCCCC2)c([N+](=O)[O-])c1 | 0.6 | -0.45
CCOC(=O)c1cccc(S(=O)(=O)N2CCOCC2)c1 | 0.25 | 0.56
O=C(CN1C(=O)C2C3C=CC(C3)C2C1=O)Nc1cccc2c1CCCC2 (centres undefined) | 0.66 | -0.99
Cc1ccc(NC(=O)/C(=C/c2cccc([N+](=O)[O-])c2)NC(=O)C2CCCCC2)c(C)c1 | 0.03 | 1.4
CCc1ccc(NC(=O)CCc2ccc(CC)o2)cc1 | 1.6 | 0.47
CCOc1ccc(NC(=O)CN(C)c2ccc(S(=O)(=O)N(C(C)C)C(C)C)cn2)cc1OCC | 1.6 | -0.42
Cc1cccn2c(=O)c(C(=O)NCCCN3CCCCC3C)c(O)nc12 (centres undefined) | 0.62 | -0.9
COc1cccc(NC(=O)CSCC(=O)Nc2ccccc2)c1 | 0.01 | 0.84
O=C(Nc1ccc2c(c1)OCCO2)c1ccccc1 | 2 | 0.07
CCOC(=O)N/N=C/c1ccc(F)cc1F | 0.03 | 0.26
COc1cccc(NC(=O)CC2C(=O)NC3CCCCC3N2C(=O)c2ccc(F)cc2)c1 (centres undefined) | 0.27 | 1.3
Later entries
SMILES | KCNQ2 enhance | KCNQ2 enhance baseline
O=C(N/N=C/c1ccc(-c2ccc(Cl)c(C(=O)O)c2)o1)c1cc2c(ccc3ccccc32)o1 | 5.4* | -0.74*
CCS(=O)(=O)N1CCN(C(=O)c2ccco2)CC1 | 1.8 | -0.18
COc1ccc(N2CCN(C(=O)CN(C)S(=O)(=O)c3cccs3)CC2)cc1 | 0.5 | 0.19
CCOc1ccc(CCNC(=O)c2cc3c(s2)CS(=O)(=O)C3)cc1OCC | 0.71 | 0.75
Cc1cc(C)cc(Oc2ccc(S(=O)(=O)N3CCN(C)CC3)cn2)c1 | 0.03 | 1.1
COc1cc2ccnc(Cc3cccc(OC)c3OC)c2cc1OC | 1.4 | -1.5
CCOC(=O)c1c(C)[nH]c(C(=O)COC(=O)c2ccccn2)c1C | 1.4 | 0.15
O=C(c1ccccc1)c1nc[nH]c1C(=O)Nc1ccccc1 | 2 | 0.8
COc1ccc(OCC(=O)Nc2ccc3c(c2)nc2n3CCSC2)cc1 | 0.66 | 1.8
O=C(Nc1ccc(C(=O)N2CCCCC2)cc1)c1cccs1 | 0.71 | 0.02
COc1cccc(C(=O)O/N=C(\C)c2cnccn2)c1 | 2.3 | 0.72
CCCOC(=O)C1C2C=C[C@]3(CN(CCc4ccccc4)C(=O)[C@H]13)O2 (some centres undefined) | 0.12 | 0.23
CC1Cc2ccccc2N1C(=O)CSc1nnc(-c2ccc(S(=O)(=O)N3CCCC3)cc2)n1C (centres undefined) | 1.9 | 0.64
CCC(CC)COC(=O)C1=C(C)NC(=O)NC1c1ccc([N+](=O)[O-])cc1 (centres undefined) | 0.77 | -0.2
CCOc1ccc2nc(SCC(=O)NC(=O)NCc3ccco3)sc2c1 | 0.73 | -2
COC(=O)c1sc2cc(C(F)(F)F)cnc2c1-c1cccnc1 | 1.4 | 0.24
COc1cc2cc(Br)cc(Br)c2nc1C | 0.44 | 0.03

Four of the compounds above, with each value named.
O=C(Nc1ccc(C(=O)N2CCCCC2)cc1)c1cccs1
- KCNQ2 enhance: 0.71
- KCNQ2 enhance baseline: 0.02

COc1cccc(C(=O)O/N=C(\C)c2cnccn2)c1
- KCNQ2 enhance: 2.3
- KCNQ2 enhance baseline: 0.72

CCCOC(=O)C1C2C=C[C@]3(CN(CCc4ccccc4)C(=O)[C@H]13)O2 (some centres undefined)
- KCNQ2 enhance: 0.12
- KCNQ2 enhance baseline: 0.23

CC1Cc2ccccc2N1C(=O)CSc1nnc(-c2ccc(S(=O)(=O)N3CCCC3)cc2)n1C (centres undefined)
- KCNQ2 enhance: 1.9
- KCNQ2 enhance baseline: 0.64

Compound activity (PubChem)
